UUG fidelity: alters start codon recognition fidelity in yeast. S. cerevisiae UUG-firefly luciferase reporter, luminescence/redox ratio. activity score, % at 18.7 µM. hit rate 0.13% among 350,000;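 active = replicate mean at a twofold rise or more, about +100% in these data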;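 also: firefly luciferase made from a UUG start codon reports start codon fidelity; reporter light over untreated wells divided by growth signal over untreated wells; some hits fall short of that in this replicate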
MT1-MMP act inh: MT1-MMP (human) activation inhibition. P50281. AID 651647. HT1080 RFP-PRO-GFP cells, GFP/RFP ratio fluorescence, overnight; percent of plate control window, DMSO zero. hit rate 0.061% among 360,000. GFP/RFP ratio change, % at 20 µM;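 active = GFP/RFP ratio change of at least 30% with cell ATP level not reduced by more than half and red fluorescence within 50% of control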; also: strong numbers were not always called active
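Material: RFP-PRO-GFP reporter HT1080 cells. Dosing: single-point 20 µM compound, 1% DMSO. Controls: DMSO and RFP-L50D-GFP cell wells. Timing: cells overnight before dosing, compound overnight, 37 °C, 5% CO2. Measure: GFP/RFP fluorescence ratio.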
Env fusion inh: inhibitors of HIV Env-mediated cell fusion; HeLa-JRFL Env/CEM21 cell fusion, luciferase; inhibition, % at 12.3 µM; hit rate 1.1% among 360,000; AID 651610;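 active = mean replicate inhibition score of at least 50 and every replicate individually at or above 50; inconclusive = only one of the two criteria met; inactive = mean below 50 and not all replicates reaching 50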;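 also: 0% = plate neutral controls and 100% = maraviroc near 300 nM; one replicate is shown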
Rce1 inh: yeast Ras-converting enzyme inhibition; Q03530; yeast membranes, quenched prenylated peptide cleavage fluorescence; calls only; hit rate 0.27% among 290,000; AID 2563;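 active = fall in fluorescence gain of 50% or more versus controls, with final raw signal at or below 3038400; inconclusive = same 50% fall but final raw signal above 3038400; inactive = fall in fluorescence gain under 50%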;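 also: plate controls were neutral control wells for no effect and wells lacking membranes for full effect; tested at 10 µM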
Target sequence (Q03530 whole entry, looked up): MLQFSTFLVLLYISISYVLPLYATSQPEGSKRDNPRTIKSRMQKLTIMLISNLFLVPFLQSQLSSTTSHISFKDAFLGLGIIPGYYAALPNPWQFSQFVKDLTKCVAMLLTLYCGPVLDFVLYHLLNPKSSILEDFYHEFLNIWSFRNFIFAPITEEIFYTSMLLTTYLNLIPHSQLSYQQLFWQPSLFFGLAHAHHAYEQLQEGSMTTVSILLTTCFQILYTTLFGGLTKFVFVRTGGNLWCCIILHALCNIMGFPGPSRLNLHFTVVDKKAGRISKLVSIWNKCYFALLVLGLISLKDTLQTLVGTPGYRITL
eIF4H FP inh: inhibitors of RNA binding by human eIF4H | Q15056 | eIF4H fluorescence polarization binding assay | inhibition, % at 35 µM | hit rate 0.94% among 290,000;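 active = 50% or more with normal probe brightness, or confirmed in later tests; inconclusive = above 50% with abnormal brightness, or retests that disagree; inactive = below 50% or failed in later tests; about a fifth of its hits are not listed in these tables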;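 also: calls also rest on retests at 20 µM and on dose response follow-up; 0% = protein and probe with vehicle and 100% = probe without protein; strong numbers were not always called active; many hits fall short of the cut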
PABP FP inh: blocks human PABP binding to poly(A) RNA; P11940; fluorescence polarization; inhibition, % at 35 µM; hit rate 1% among 290,000;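 active = 50% or more with normal probe brightness, or confirmed in later tests; inconclusive = above 50% with abnormal brightness, or retests that disagree; inactive = below 50% or failed in later tests; about a fifth of its hits are not listed in these tables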;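 also: calls also rest on retests at 20 µM and on dose response follow-up; controls were probe without protein and protein plus probe with vehicle; some compounds called inactive have numbers as strong as hits; many hits fall short of the cut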
CSC inhib: blocks cancer stem cells. cancer stem cell-like cells viability, luminescence. inhibition, % at 7.5 µM. hit rate 1.1% among 300,000. AID 2717;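 active = mean at 75% or more and at least half the replicates too; inconclusive = mean and replicates disagree; tested in HMLE shEcad cells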;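 also: 0% = median of negative and 100% = median of positive control wells; the first replicate is given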
eIF4H FP inh retest: recorded beside eIF4H FP inh, whose call it bears; inhibition, %; compound at 20 µM; confirmation average;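 mean of two retest wells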
PABP FP inh retest: second read-out of PABP FP inh, no call of its own (marks repeat the call); inhibition, %; compound at 20 µM; confirmation repeats;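 mean of two retest wells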
MT1-MMP act inh RFP: second read-out of MT1-MMP act inh, no call of its own (marks repeat the call); RFP signal change, %; measured here: RFP expression control read;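 0 = vehicle wells; hits needed this value within 50% of zero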
An asterisk follows results filed as active; i = inactive; ? = inconclusive; . = not tested or not shown. A portion of the library; rates above refer to the full screens.

SMILES | UUG fidelity | MT1-MMP act inh | MT1-MMP act inh RFP | Env fusion inh | Rce1 inh | eIF4H FP inh | PABP FP inh | CSC inhib | others
Cc1nnc(NC(=O)CN2CC(C)OC(C)C2)s1 (stereo not drawn) | -4 | 0 | 2 | -1 | i | -12 | -5 | -12
CC1(C(=O)O)CC(C)(C(=O)O)CC(C)(C(=O)O)C1 (stereo not drawn) | -11 | 1 | 4 | . | i | 8 | 0 | .
CCCCNC(=O)[C@@H]1CSC2c3ccccc3C(=O)N21 (stereo partly drawn) | -6 | 2 | 5 | -14 | i | -6 | -2 | -5
COc1ccc(CN2CCNC(=O)C2CC(=O)N(C)CCc2cnn(C)c2)c(F)c1 (stereo not drawn) | -33 | -5 | 1 | 0 | i | -1 | 2 | 1
CN(c1cccc(NC(=O)c2ccccc2N(C)S(=O)(=O)c2ccccc2)c1)S(C)(=O)=O | . | 3 | 3 | 23 | i | -7 | -8 | -11
CCCN1C[C@H](CSC)C[C@@H]2c3cccc4[nH]cc(c34)C[C@H]21 | -29 | -10 | 6 | -5 | i | 100* | 2.0* | . | eIF4H FP inh retest=103*;PABP FP inh retest=51*
Cc1cccc(NC(=S)N(CCCN2CCOCC2)C(C)c2cc3ccccc3o2)c1C (stereo not drawn) | -12 | 5 | 0 | 12 | i | 0 | -5 | 3
CC1(C(=O)NS(=O)(=O)c2cccc(F)c2)CCN1C(=O)Cc1cccc2ccccc12 (stereo not drawn) | -14 | 2 | -1 | 13 | . | . | . | .
COc1ccccc1NS(=O)(=O)c1cccc2cccnc12 | -25 | -1 | 4 | 30 | i | -10 | -6 | -16
CCc1ccc(-n2c(CSc3nnnn3-c3ccccc3)nc3ccccc3c2=O)cc1 | -24 | 2 | -1 | . | i | -6 | 7 | -19
COc1nc(-c2ccccc2)c2cc(Br)ccc2n1 | . | -1 | -4 | 12 | i | . | . | .
COC(=O)c1cccc(NC(=O)c2nn(C(C)C)c(=O)c3ccccc23)c1 | . | 2 | -7 | -7 | i | -11 | 3 | 1
O=C(NNC1=NCCC1)c1cccc(S(=O)(=O)N2CCOCC2)c1 | -7 | 3 | 4 | 9 | i | 3 | 4 | 2
O=c1c2ccccc2ncn1/N=C/c1ccccc1 | -11 | -3 | -1 | -41 | i | 4 | 2 | -4
COc1ccc(-c2cc3ccccc3oc2=O)cc1NC(=S)NC(=O)c1ccc2c(c1)OCCO2 | -4 | -15 | -8 | -218 | i | 2 | 3 | .
CC12CCC(C(=O)NCc3cccnc3)(OC1=O)C2(C)C (stereo not drawn) | -13 | -5 | 0 | . | i | -9 | 1 | .
Cc1nn(Cc2ccccc2)c(C)c1NC(=O)CSc1nc(C2CC2)nc2c1cnn2-c1ccccc1 | -11 | -3 | -5 | -44 | i | -6 | 0 | -1
CCOC(=O)N(Cc1ccccc1)C(C(=O)O)C(C(=O)O)N(Cc1ccccc1)C(=O)OCC (stereo not drawn) | -8 | -5 | 4 | . | i | -15 | 8 | 3
FC(F)(F)c1cnc(Sc2ncn[nH]2)c(Cl)c1 | . | -1 | 2 | -3 | i | -10 | -14 | 4
COc1cccc(C(=O)NC2CCCC2)c1 | 7 | 1 | -2 | 0 | i | 7 | -6 | 15
C/C(CC(=O)NCCCN1CCOCC1)=N\NC(=O)COc1ccc(C)cc1 | . | 0 | 1 | 2 | i | -4 | 2 | -16
CCOC(=O)C1=C(C)NC(C)=C(C(=O)OC)C1c1ccco1 (stereo not drawn) | . | 2 | -2 | -26 | i | 12 | 3 | 0
O=c1c2ccccc2nnn1CSc1nnc2ccccn12 | -16 | 5 | 6 | -50 | i | 5 | 4 | -8
COC(=O)c1cccc(S(=O)(=O)N2CCOCC2)c1 | -2 | 2 | 4 | 5 | i | 8 | 8 | 14
O=C(/C=C/[C@H]1O[C@@H](n2cnc3c(NC(=O)c4ccccc4)ncnc32)[C@H](O)[C@@H]1O)N[C@@H](CO)Cc1c[nH]c2ccccc12 | -8 | 2 | 6 | 21 | . | . | . | .

An excerpt from above in order of count of non-hydrogen atoms, ascending:
SMILES | UUG fidelity | MT1-MMP act inh | MT1-MMP act inh RFP | Env fusion inh | Rce1 inh | eIF4H FP inh | PABP FP inh | CSC inhib | others
COC(=O)c1cccc(S(=O)(=O)N2CCOCC2)c1 | -2 | 2 | 4 | 5 | i | 8 | 8 | 14
CCCN1C[C@H](CSC)C[C@@H]2c3cccc4[nH]cc(c34)C[C@H]21 | -29 | -10 | 6 | -5 | i | 100* | 2.0* | . | eIF4H FP inh retest=103*;PABP FP inh retest=51*
O=C(/C=C/[C@H]1O[C@@H](n2cnc3c(NC(=O)c4ccccc4)ncnc32)[C@H](O)[C@@H]1O)N[C@@H](CO)Cc1c[nH]c2ccccc12 | -8 | 2 | 6 | 21 | . | . | . | .

Next part
SMILES | UUG fidelity | MT1-MMP act inh | MT1-MMP act inh RFP | Env fusion inh | Rce1 inh | eIF4H FP inh | PABP FP inh | CSC inhib | others
Cc1cc2ncn(CC(O)COc3cccc(C(=O)O)c3)c2cc1C (stereo not drawn) | -26 | -1 | 2 | -20 | i | -7 | -4 | -6
CC(C)CNS(=O)(=O)c1cc(C(=O)OCC(=O)N(C)C2CCS(=O)(=O)C2)c(Cl)cc1Cl (stereo not drawn) | -2 | -2 | 0 | 17 | i | 6 | -1 | 10
Cc1ccc(C)c(NC(=O)c2ccccn2)c1 | . | 2 | 1 | . | i | 1 | 2 | -2
COc1cc(C2C(C#N)=C(N)Oc3n[nH]c(-c4ccncc4)c32)cc(OC)c1OC (stereo not drawn) | -15 | -4 | -4 | . | i | -6 | 0 | -4
Cc1ccccc1-n1nnnc1SCC(=O)N(C)C1CCS(=O)(=O)C1 (stereo not drawn) | -3 | -3 | 1 | 3 | i | -3 | 2 | -7
CNC(=O)COc1coc(CN2CCN(Cc3ccccc3)CC2)cc1=O | -6 | 0 | 5 | -5 | i | 7 | -4 | -2
COCCN(C(=O)c1ccccc1)c1nnc(-c2cccnc2)s1 | -20 | 2 | 1 | . | i | 90 | -6 | -4 | eIF4H FP inh retest=9;PABP FP inh retest=4
C=CCc1cccc(/C=N/NC(=O)CNc2ccccc2)c1O | -6 | 1 | -12 | . | i | 3 | 3 | 63
CS(=O)(=O)N(CC(=O)N1CCCCC1)c1sc2c(c1C#N)CCCC2 | 3 | 6 | 2 | . | i | . | . | -4
COCCCNc1nc(N)c([N+](=O)[O-])c(N2CCCCCC2)n1 | -10 | -6 | -15 | 7 | i | 0 | 6 | -10
COc1ccc(/C=N/Nc2ccc([N+](=O)[O-])cc2)cc1O | -16 | -11 | 1 | -105 | i | 6 | -10 | 21
CC(C)NCCOCCSc1ccc(Cl)cc1 | -6 | 2 | 1 | -61 | i | 6 | 1 | 31
COc1cc(/C=C/C(=O)NCCc2ccc(S(N)(=O)=O)cc2)ccc1OCC#N | . | 4 | 3 | -5 | i | -3 | 2 | -1
O=C(Nc1ccccc1Cl)c1ccc(-n2cccn2)c([N+](=O)[O-])c1 | . | 0 | -3 | 1 | i | 1 | 3 | 2
O=C(Nc1ccc2c(c1)OCCO2)C1CC(c2ccc(F)cc2)=NO1 (stereo not drawn) | 0 | 3 | 1 | 2 | i | 6 | 9 | -5
Cc1cc(C)c2sc(NC(=O)C3=COCCO3)nc2c1 | -21 | 1 | 1 | -98 | i | -5 | -6 | 5
CC(=O)Nc1ccc(S(=O)(=O)N2CCN=C2SCc2ccccc2C)cc1 | -14 | 2 | -6 | . | i | -5 | 1 | 8
CC(C)C[C@H](NC(=O)OC(C)(C)C)C(=O)N[C@@H](CO)[C@H](O)[C@@H]1C[C@@H]1C(=O)N(C)C | -10 | 2 | 1 | . | i | -7 | 4 | 11
CCOc1nc(NCCO)nc(Nc2ccccc2F)n1 | . | 2 | 0 | 15 | i | -3 | -5 | 0
COc1cc(/C=N/NC(=O)Cn2cnc3ccccc3c2=O)ccc1O | . | 3 | -2 | 9 | i | 3 | 5 | -14
COc1cccc(/C(C#N)=C/c2c(-c3ccc(Cl)cc3)nc3c(C)cccn23)c1 | . | -6 | -11 | . | i | -9 | -4 | 21
Cc1ccc(N/C=C/c2onc(C)c2[N+](=O)[O-])cc1 | -17 | -18 | 0 | -151 | i | -4 | 0 | .
O=C(CCCCCNC(=O)N1CCn2c1nc1ccccc12)NCc1ccccc1 | -1 | -2 | 4 | -29 | i | -8 | 0 | -10
CC(=O)Nc1ccc(C2CC(c3ccc(Cl)cc3)=NN2c2ccccc2)cc1 (stereo not drawn) | -17 | 1 | -1 | 9 | i | -4 | 8 | ?
Oc1cc(NCc2cccnc2)ccc1-c1nc2ccccc2o1 | -25 | 8 | 6 | -194 | i | 5 | 9 | 50
Additional results
SMILES | UUG fidelity | MT1-MMP act inh | MT1-MMP act inh RFP | Env fusion inh | Rce1 inh | eIF4H FP inh | PABP FP inh | CSC inhib | others
COc1ccc(C(=O)NCCNc2nc3ccc(C)cc3cc2C#N)cc1 | -6 | 0 | 0 | -1 | i | 9 | 3 | 3
CC(=O)Oc1ccc(C(=O)[C@H]2[C@H]3C(=O)N(c4ccc(C)cc4C)C(=O)[C@H]3[C@@H]3C=CC=NN32)cc1 | . | -16 | 9 | -20 | i | 7 | 3 | -4
CCCN1CCN(C(=O)CS(=O)(=O)Cc2nc(-c3cccc(OC)c3)oc2C)CC1 | 23 | 3 | 0 | -1 | i | -16 | -8 | -2
Cc1csc(Cn2c(CN(C)C)nc3ccccc3c2=O)n1 | -10 | -8 | -1 | . | i | 1 | 10 | 16
Cc1oc2ccccc2c1-c1cn2c(n1)SCC2 | -15 | -9 | -2 | -37 | i | -15 | -8 | -20
O=C(Cn1nnc(-c2ccccc2Cl)n1)N/N=C/c1ccc2c(c1)OCO2 | -2 | 3 | 4 | -124 | i | -5 | -14 | -7
CC1(C)CC(=O)C(C2C3=C(CC(C)(C)CC3=O)Oc3c(Br)cc(Br)cc32)=C(O)C1 (stereo not drawn) | -11 | -12 | -38 | 18 | i | -8 | 35 | -3
O=C(C1=C[C@H](c2ccc3c(c2)OCO3)C[C@H](OCCCCO)O1)N1CCN(Cc2ccc3c(c2)OCO3)CC1 | -9 | 4 | -2 | 7 | i | 2 | -11 | 2
CCCCN(Cc1nc2ccccc2c(=O)[nH]1)C(=O)c1nn(C)c(=O)c2ccccc12 | -16 | -5 | -1 | -42 | . | . | . | .
Fc1ccccc1NC(=S)NN(Cc1ccccc1)c1ccccc1 | . | -2 | -1 | . | i | -18 | -6 | .
O=C(Nc1cccc(CCc2ccccn2)c1)c1ccc(Cl)cc1 | . | . | . | . | i | 7 | 4 | -8
O=C(COC(=O)c1n[nH]c2ccccc12)c1cccc(Br)c1 | -8 | 1 | -6 | . | i | -6 | 5 | 14
CCOC(=O)c1c(-c2ccccc2)nc2ccccn12 | 4 | 3 | 3 | -118 | i | -6 | -5 | 36

Molecules listed so far that contain a furan ring, fused or not, in the order listed:
SMILES | UUG fidelity | MT1-MMP act inh | MT1-MMP act inh RFP | Env fusion inh | Rce1 inh | eIF4H FP inh | PABP FP inh | CSC inhib | others
Cc1cccc(NC(=S)N(CCCN2CCOCC2)C(C)c2cc3ccccc3o2)c1C (stereo not drawn) | -12 | 5 | 0 | 12 | i | 0 | -5 | 3
CCOC(=O)C1=C(C)NC(C)=C(C(=O)OC)C1c1ccco1 (stereo not drawn) | . | 2 | -2 | -26 | i | 12 | 3 | 0
Cc1oc2ccccc2c1-c1cn2c(n1)SCC2 | -15 | -9 | -2 | -37 | i | -15 | -8 | -20

Screens from PubChem BioAssay.
